Assay outcomes (PubChem)
RE007 growth inh: qHTS Assay for Inhibitors of the HIV-1 protein Vpr; S. pombe RE007 Vpr strain, BacTiter-Glo ATP luminescence, 24 h; control for the full effect not named in the record; Potency, µM (highest dose often 92.2 µM), inactives show at the top dose activity change, negative = less growth; 360,000 tested, 0.21% active; active = well fitted falling curve with a large enough effect; inconclusive = small, poorly fitted or top-dose-only effect; inactive = no such curve, though single readings can be large or run the other way;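 further: on the % scale 0 is the no-effect control and ±100 the full control effect; nearly all actives have a fitted effect of over 50% in size; the assay follows cell death caused by Vpr and the record does not say whether a fall means rescue or toxicity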
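Fission yeast strain RE007, carrying one chromosomally integrated HIV-1 vpr copy, was seeded at OD 0.01 in PMG+AL medium with 23 nL pinned compound. After 24 h at 30 °C and 99% humidity, viability was read by BacTiter-Glo luminescence.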
SARS PLpro yeast: qHTS of Yeast-based Assay for SARS-CoV PLP; 330,000 tested, 0.19% active; S. cerevisiae expressing SARS-CoV PLpro, growth rescue; control for the full effect not named in the record; Potency, µM (top dose mostly 32.9 µM), without a hit: top-dose activity, positive = growth rescue; further: 0% is about no effect; nearly all actives have a fitted effect of over 55% in size; growth read by luminescence after 48 h
2A StopGo: High Throughput Screening for Foot and Mouth Disease Virus Antivirals | human cells with a luciferase reporter of 2A StopGo recoding; control for the full effect not named in the record | Potency, µM (highest dose often 57.9 µM), without a hit: top-dose signal change, negative = less light | 410,000 tested, 1.2% active; active = well fitted falling curve with a large enough effect; inconclusive = small, poorly fitted or top-dose-only effect; inactive = no such curve, though single readings can be large or run the other way; tested in HEK293T cells; further: on the % scale 0 is the no-effect control and ±100 the full control effect; nearly all actives have a fitted effect of over 45% in size; luciferase light after 4 h
MARV entry inh: qHTS for inhibitors of binding or entry into cells for Marburg Virus. Marburg virus pseudotyped entry inhibition, cell reporter; control for the full effect not named in the record; about a third of the inactives were read at about 46 µM. Potency, µM (highest dose often 37.8 µM), without a hit: at the top dose activity change, negative = inhibition, usual class: inhibitors. 300,000 tested, 1.8% active. AID 540276, 2011; active = well fitted inhibition curve with a large enough effect; inconclusive = small, poorly fitted or top-dose-only effect, or effect the other way; inactive = flat fitted curve, though single readings scatter; tested in HEK293 cells; about a fifth of its hits are not listed in these tables; further: on the % scale 0 is the no-effect control and ±100 the full control effect; luciferase read-out
Cruzain Triton: qHTS Assay for Promiscuous and Specific Inhibitors of Cruzain (with detergent); Cruzipain (Trypanosoma cruzi), P25779; purified cruzain, Z-FR-AMC fluorescence, 0.01% Triton; Potency, µM, inactives show max response, negative = inhibition, usual class: inhibitors; 200,000 tested, 0.43% active; AID 1478, 2009; active means well fitted curve in the direction sought with a large enough effect; inconclusive means small, poorly fitted or top-dose-only effect, or another doubt; inactive means no such curve, though single readings can be large; an effect the other way counts as inactive or inconclusive;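 further: plate controls were neutral wells for no effect and buffer without enzyme for full effect; nearly all actives have a fitted effect of over 40% in size; top concentration of the series not given in the record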
Target sequence (P25779 123-467 limits assumed): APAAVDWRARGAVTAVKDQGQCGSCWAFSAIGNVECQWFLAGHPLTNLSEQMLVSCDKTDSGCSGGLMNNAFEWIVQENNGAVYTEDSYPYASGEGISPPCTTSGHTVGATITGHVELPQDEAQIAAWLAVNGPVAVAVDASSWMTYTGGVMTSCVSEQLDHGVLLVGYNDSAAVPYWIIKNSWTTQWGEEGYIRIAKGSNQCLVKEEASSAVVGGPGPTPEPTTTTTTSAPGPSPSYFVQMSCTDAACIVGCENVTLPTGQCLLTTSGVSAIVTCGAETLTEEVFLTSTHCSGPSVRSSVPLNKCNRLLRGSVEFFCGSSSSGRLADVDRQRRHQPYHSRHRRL
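Z-FR-AMC hydrolysis (2 uM substrate) by cruzain (1.5 nM) monitored kinetically at ex 360/em 450 nm after 15 min room-temperature compound exposure; 0.01% Triton X-100, pH 5.5, 5 mM DTT.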
Cruzain inh noDet: qHTS Assay for Promiscuous and Specific Inhibitors of Cruzain (without detergent) | purified cruzain, Z-FR-AMC fluorescence, no detergent | Potency, µM, without a hit: max response, negative = inhibition, actives largely listed as inhibitors | 200,000 tested, 2.3% active; active means well fitted curve in the direction sought with a large enough effect; inconclusive means small, poorly fitted or top-dose-only effect, or another doubt; inactive means no such curve, though single readings can be large; an effect the other way counts as inactive or inconclusive;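 further: plate controls were enzyme without inhibitor for no effect and buffer without enzyme for full effect; nearly all actives have a fitted effect of over 40% in size; top concentration of the series not given in the record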
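Detergent-free condition (0.00005% Triton X-100) in acetate buffer pH 5.5 with DTT. 1.5 nM enzyme and compound were pre-mixed 15 min, then 2 uM Z-FR-AMC substrate added; reaction progress from fluorescence change between first and third reads (60 s).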
NS1 inh: qHTS Assay for Inhibitors of Influenza NS1 Protein Function; S. cerevisiae slowed by influenza A NS1, growth recovery by OD600; Potency, µM (top dose mostly 46.1 µM), for the others: top-dose activity, positive = more growth; 270,000 tested, 0.4% active; further: actives are rising curves; nearly all actives have a fitted effect of over 50% in size
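S. cerevisiae expressing influenza A NS1, grown in glucose, washed, then diluted 1:100 into pH 6.0 -URA galactose medium with 23 nl compound. Growth recovery read as OD600; NS1-free strain serves as control.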
Lassa entry inh: qHTS for Inhibitors of binding or entry into cells for Lassa Virus; Lassa virus pseudotype entry inhibition, cell reporter; control for the full effect not named in the record; Potency, µM (top dose mostly 37.9 µM), without a hit: at the highest dose activity change, negative = inhibition, most hits filed as inhibitors; 300,000 tested, 1.2% active; AID 540256, 2011; active means well fitted inhibition curve with a large enough effect; inconclusive means small, poorly fitted or top-dose-only effect, or effect the other way; inactive means flat fitted curve, though single readings scatter; tested in HEK293 cells; further: on the % scale 0 is the no-effect control and ±100 the full control effect; nearly all actives have a fitted effect of over 50% in size; luciferase read-out
Numbers without * were called inactive; ? = inconclusive; . = not tested or not shown; & = joins results of further samples; [ ] = another dose, or the depositor's remark. Unless noted, the call rests on the fitted dose curve; in most records, active means well fitted rising curve with a large enough effect; inconclusive means small, poorly fitted or top-dose-only effect; inactive means no such curve, though single readings can be large or run the other way. Potency means the concentration at half of the fitted maximal effect.

Second line of a record – RE007 growth inh | SARS PLpro yeast | 2A StopGo | MARV entry inh | Cruzain Triton | Cruzain inh noDet | NS1 inh | Lassa entry inh
CC(=O)c1cccc(NC(=O)CCc2nnc3ccc(N4CCOCC4)nn23)c1
→ -1% | 22% | 9% | -7%[46.1 µM] | . | . | 9% | 2%[46.1 µM]
COc1ccc(OCc2nnc(SCC(=O)N(C)Cc3ccccc3)n2N)cc1
→ 5% | 2% | -6% | 27%[46.1 µM] | . | . | . | .
CC1CCCN(c2sc(S(C)(=O)=O)nc2S(=O)(=O)c2ccc(Cl)cc2)C1 (stereo not given)
→ 10% | 0% | 9% | . | . | . | -8% | .
O=[N+]([O-])c1c(NCCCO)cc(SCc2ccco2)c2nonc12
→ -22% | -8% | 0% | 2% | -14% | 4% | 13% | 0%
COC(=O)CCC(=O)OC1(C)C(=O)C=C2C=C(C3CC3)N(Cc3ccco3)C=C2C1=O (stereo not given)
→ 0% | -4% | -24% | 47%&47%[14.2 µM] | . | . | -14% | .
COC(=O)c1nnn(CC(=O)Nc2c(C)cccc2C)c1N
→ . | . | 7% | ? | 1.8% | -1% | . | ?
O=C(NC1CCN(C(=O)Nc2ccccc2Cl)CC1)c1cccc(F)c1
→ 2% | 1% | 1% | -1%[46.1 µM] | . | . | -3% | -7%[46.1 µM]
COc1cc(/C=C/c2nc3ccccc3c(=O)[nH]2)cc(OC)c1OC
→ 11% | 2% | 22% | . | . | . | -1% | .
COc1ccc(S(=O)(=O)NCC2CCC(C(=O)O)CC2)cc1 (stereo not given)
→ 4% | 0% | -16% | . | . | . | ? | .
Cc1cc(C)n(C(=O)c2nn(C)c(C)c2[N+](=O)[O-])n1
→ -8% | 9% | 5% | -17% | -2.5% | -2% | 19% | 22%
CC(NC(=S)Nc1ccc(S(N)(=O)=O)cc1)c1ccc2c(c1)OCO2 (stereo not given)
→ -10% | 5% | -12% | -2% | -3.1% | -22% | 1% | 2%
CCN(c1ccccc1)S(=O)(=O)c1cc(C(=O)Nc2cccc(Cl)c2)ccc1F
→ -4% | -4% | 20µM* | ? | -5.6% | -1% | 27% | 13µM*
Cc1cnc(NC(=O)CSc2nnc(C)n2N)s1
→ 7% | 9% | 2% | ? | -0.4% | -10% | 21% | 5%
O=C(Cn1ccc2ccccc2c1=O)NCCC(=O)N1CCN(C2CCCCC2)CC1
→ 3% | -4% | -6% | 6%&11% | 3.5% | 3% | ? | 16%
O=C(NN1CCOCC1)c1ccccc1NS(=O)(=O)c1ccc(F)cc1F
→ 13% | 5% | -9% | -19% | . | . | . | -12%
C=CCCC(=O)N1CCCC(C(=O)c2cccc(OC)c2)C1 (stereo not given)
→ 5% | 20% | 24% | . | . | . | 0% | .
CC1(C)c2ccccc2N2CC(=O)N(CC(N)=O)C21C (stereo not given)
→ -7% | -2% | 6% | 0% | 1.8% | 4% | 10% | 2%
Nc1nonc1C(=O)NCCNC(=O)c1ccc(Cl)c(Cl)c1
→ 0% | 2% | 5% | 1%[46.1 µM] | . | . | 5% | ?
CCN(CC)c1ccc2cc(C(N)=O)/c(=N\NC(=O)c3ccncc3)oc2c1
→ 6% | -1% | ? | ? | . | . | 10% | 6%
O=Nc1c(O)n(Cc2cccc(C(F)(F)F)c2)c2ccccc12
→ 11% | -2% | -22% | -32%[46.1 µM] | . | . | -2% | ?
COc1ccc(C(C(=O)NC2CCCC2)N(C(=O)c2ccco2)c2ccccc2C(C)=O)cc1OC (stereo not given)
→ 8% | -1% | 4% | 3%[46.1 µM] | . | . | 3% | -16%
O=C1NC(=O)c2cc(Br)cc3cccc1c23
→ 0% | -2% | -14% | -1%[46.1 µM] | . | . | . | 17%
O=C(Nc1ccc2c(c1)CCC2)c1cccc(S(=O)(=O)Nc2ccccc2Cl)c1
→ -1% | -26% | -27% | ? | -3.3% | -20% | 15% | -29%
Cc1ccc(NC(=O)/C(=C/C=C/c2ccccc2)NC(=O)c2ccccc2)cc1
→ 5% | 5% | 17% | -12% | -3.1% | ? | 1% | -2%
CC(=O)N(CN1C(=O)c2ccccc2C1=O)c1ccc2c(c1)oc1ccccc12
→ 2% | 23% | -23% | 2% | -4.9% | 1% | -4% | 0%
O=C(NCCc1ccccc1)c1ncn[nH]1
→ 6% | 1% | 19% | 20% | 5.6% | -6% | ? | 20%
CCCC(=O)N1CCN(c2ccc(NC(=O)c3sc4ccccc4c3Cl)cc2)CC1
→ -5% | 5% | -12% | -26% | -0.7% | ? | 9% | -18%
Cc1c(Cl)cnc(NC(=O)COC(=O)c2cccc(S(=O)(=O)N3c4ccccc4CC3C)c2)c1Cl (stereo not given)
→ -6% | 9% | -10% | 0% | -7.4% | ? | 11µM* | 8%
Cc1ccc(NC(=O)C2CCN(S(=O)(=O)c3cccc(C(F)(F)F)c3)CC2)nc1
→ 0% | . | -18% | 1% | . | . | . | -12%
Cc1ccc(C(=O)Nc2ccc3c(c2)CCC3)cc1
→ -9% | -2% | -20% | ? | . | . | -11% | 16µM*
CCOC(=O)/C=C/c1cnn(-c2ccccc2)c1
→ -23% | ? | 41%[activator] | ? | -2.3% | -2% | -3% | 20%
N=c1n(Cc2ccccc2)c2ccccc2n1CC(O)c1ccccc1 (stereo not given)
→ -3% | -21% | ? | ? | -4.0% | 3% | ? | ?
CSc1n[nH]c(N)c1S(=O)(=O)c1ccc(Cl)cc1
→ 8% | 1% | 42%[activator] | 5% | . | . | 3% | .
COc1ccccc1NC(=O)COc1coc(CN2CCN(c3ccccc3)CC2)cc1=O
→ 1% | -1% | ? | -29% | . | . | . | ?
Cn1c(NC(=O)C2CC2)cc(=O)n(C)c1=O
→ 12% | 7% | -9% | . | 3.9% | 7% | 8% | .
CC(=O)Nc1ccc(/C=C(\C#N)C(N)=O)cc1
→ 12% | -1% | 15% | ? | . | . | 13% | -10%
CCC(C)NC(=O)Cn1c(=O)n(-c2ccc(C)cc2)c(=O)c2ccccc21 (stereo not given)
→ . | . | -1% | 11%[46.1 µM] | -1.2% | 2% | . | ?
O=C(O)CC1(CC(=O)Nc2ccc(Cl)cc2C(=O)c2ccccc2)CCCC1
→ 8% | 0% | -19% | . | . | . | 5% | .
O=[N+]([O-])c1cccc2ccc(/C=C/c3ccc(Cl)cc3)nc12
→ -13% | -13% | 15% | ? | -4.7% | 10µM* | ? | 5%
CSC1=NCCN1CCOc1ccccc1
→ -16% | 14% | -8% | 0%[46.1 µM] | . | . | . | -13%
COc1cccc(S(=O)(=O)Nc2ccc(C(=O)N3CCN(C(=O)c4ccco4)CC3)cc2)c1
→ -9% | 11% | 4% | 8% | -0.8% | 25% | -10% | 0%
COc1ccc(NC(=O)CSc2nnc(NC(=O)c3ccco3)s2)cc1
→ -2% | -1% | 69%[activator] | . | . | . | 1% | .
CCn1c(CNC(=O)c2ccc(OC)cc2)nnc1SCC(=O)Nc1ccc(F)cc1
→ . | . | 0% | ? | -0.3% | 2% | . | 7%[46.1 µM]
CCCC(C(=O)Nc1nccs1)c1ccccc1 (stereo not given)
→ 40% | 5% | 0% | 10% | -4.2% | -1% | 25% | 2%
CN(C1=NS(=O)(=O)c2ccccc21)c1ccc(OC(=O)c2ccncc2)cc1
→ 24% | 0% | -13% | . | . | . | 1% | .
Cc1cc(C(=O)CN2C(=O)NC3(CCCCC3)C2=O)c(C)n1-c1ccc2c(c1)OCO2
→ 3% | -21% | 4% | ? | -5.2% | ? | 6% | -2%
COc1ccc(S(=O)(=O)N2CC(C(=O)O)Oc3ccc(CC(=O)O)cc32)cc1 (stereo not given)
→ 27% | -3% | 3% | 3% | 4.0% | 2% | -2% | 9%
O=C(NCCCN1CCCC1=O)Nc1ccc(Cl)cc1
→ -11% | . | 53%[activator] | ? | . | . | . | 25%
COc1cccc(C2/C(=C(/O)c3ccc(C)cc3)C(=O)C(=O)N2Cc2ccco2)c1 (stereo not given)
→ -3% | -11% | 25% | 21%[46.1 µM] | -7.4% | -6% | 5% | 7%
Nc1nnnn1/N=C/c1ccccc1O
→ -16% | . | 49%[activator] | 2% | . | . | . | 16%
O=C(Cc1ccccc1)Nc1ccccc1Sc1ccccc1
→ 1% | -22% | -6% | -12% | 1.2% | 0% | -18% | 2%
O=C(c1oc(=O)c2ccccc2c1-c1ccccc1)N1CCOCC1
→ -11% | 0% | -21% | 13% | 0.5% | 12% | -6% | -4%
CCCCC(CC)CNC(=O)C(=O)C1C(=O)Nc2ccccc21 (stereo not given)
→ -12% | 15% | 0% | 0%[46.1 µM] | . | . | 2% | -20%[46.1 µM]
Cc1ccnc(NC(=O)CC(NC(=O)c2ccccc2Cl)c2ccccc2)c1 (stereo not given)
→ 11% | 0% | 27% | 19% | . | . | . | 2%
COCCNC(=O)c1onc(CSc2ccccc2C)c1C(=O)O
→ -14% | 4% | 0% | . | 4.9% | -9% | 13% | .
CCc1ccc(-c2cc(-c3n[nH]c(=S)n3CC)c3ccccc3n2)cc1
→ . | 0% | . | -17% | -3.4% | 16µM* | 21% | ?
CC1CCN(S(=O)(=O)c2cccc(C(=O)N3CCN(c4ccc(F)cc4)CC3)c2)CC1
→ 9% | 1% | -19% | ? | . | . | -12% | ?
C=C1CCC[C@]2(C)C[C@H]3OC(=O)C(CNC(C)CC)[C@H]3CC12 (stereo not given in full)
→ ? | 0% | -9% | . | . | . | -3% | .
COc1ccc(C2(O)CCN(CC(=O)Nc3nccs3)CC2)c(OC)c1
→ 5% | -8% | -18% | 0% | 3.4% | 0% | 2% | 4%
